TAR Tat displ: TAR RNA-Tat peptide displacers, HIV-1, primary screen, biochemical, FRET, FAM/TAMRA-labeled Tat. HIV-1 TAR RNA, Tat peptide displacement FRET; hits give high values. z-score (no concentration beside the values). hit rate 0.6% among 100,000. AID 1259389, 2018;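 note: score is relative to mean and SD of negative controls; some compounds called inactive have numbers as strong as hits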
CDC25B CDK2 inh: primary biochemical HTRF screen for blockers of M-phase inducer phosphatase 2 binding to CDK2/cyclin A | P30305+P24941 | HTRF CDC25B-CDK2/CyclinA binding, anti-His/anti-Flag; hits give high values | z-score (no concentration beside the values) | hit rate 0.72% among 94,000 | AID 1259370, 2018;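 note: score is relative to mean and SD of negative controls; strong numbers were not always called active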
Numbers without * were called inactive.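 Rule for the calls: active = z-score from 3 up in half or more of its runs; inactive = the rest.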

For Cc1cc(C)n(CCc2nc3c4ccccc4nc(N4CCN(c5ccccc5F)CC4)n3n2)n1 the results were TAR Tat displ 1.7 and CDC25B CDK2 inh -0.13.
CCOC(=O)C1CCN(C(=O)CCS(=O)(=O)c2ccc3c(c2)CC(C)N3C(=O)CC)CC1 (stereo unspecified) was read as CDC25B CDK2 inh 0.94.
For O=C(c1c[nH]c2ccccc12)C1CCCCC1 the results were TAR Tat displ 0.79 and CDC25B CDK2 inh 0.11.
O=C(CSCc1ccccc1)Nc1nnc2n1CCS2 was read as TAR Tat displ -0.07.
For CCOc1ccc(C2C=C(C(=O)O)Nc3nnnn32)cc1OCC (stereo unspecified) the results were TAR Tat displ 0.46.
For Cc1cc(C)c2ccc(C3=C(O)c4ccccc4C3=O)nc2c1O the results were TAR Tat displ 2.7 and CDC25B CDK2 inh -1.9.
COc1cc(NS(=O)(=O)c2ccc(NC(=O)CSC3=NCCS3)cc2)nc(OC)n1 was read as CDC25B CDK2 inh -2.6.
Cc1ccc(Nc2c(-c3ccsc3)nc3ncccn23)cc1Cl was read as TAR Tat displ 0.89 and CDC25B CDK2 inh -1.6.
COc1ccc(NC(=O)c2noc3c2CCc2sccc2-3)cc1 was read as TAR Tat displ -1.1.
For COc1ccc(NC(=O)CN2N=NC3C(=O)N(c4ccc(F)c(Cl)c4)C(=O)C32)cc1 (stereo unspecified) the results were TAR Tat displ 0.74.
O=C(CNC(=O)c1ccccc1)OCc1cc(=O)n2nc(C3CC3)sc2n1 was read as TAR Tat displ 2.3.
O=S(=O)(CCN(CCc1ccccc1)S(=O)(=O)c1ccc(Cl)cc1)N1CCNCC1 was read as TAR Tat displ 1.2.
For CC1CC(C)(C)NC(=S)N1CC(=O)N1CCCCC1 (stereo unspecified) the results were CDC25B CDK2 inh -0.24.
`CC1Cc2ccccc2N1c1ccc(C(=O)NCCN(C)C)s1` (stereo unspecified) gave TAR Tat displ 0.57.
Screening O=C1c2ccccc2C(=O)C1(Nc1ccccc1)c1ccccc1 returned TAR Tat displ -0.18 and CDC25B CDK2 inh -0.71.
Screening COc1ccc(CNc2c(-c3ccc4c(c3)CCCC4)c(=O)c2=O)cc1 returned TAR Tat displ 2.2.
Screening COc1ccc(C(c2sc3nc(C)nn3c2O)N2CCN(C)CC2)cc1 (stereo unspecified) returned CDC25B CDK2 inh -1.3.
`O=C(C1CCN(c2ccc3cc(S(=O)(=O)N4CCCCC4)ccc3n2)CC1)N1CCCC1` gave TAR Tat displ 0.93.
O=C(NCc1cccs1)c1sc(=S)n2c1[nH]c(=O)c1ccccc12 was read as TAR Tat displ -0.89.
Screening Cc1ccnc(Nc2nc(-c3c(C)nc4cc(C)ccn34)cs2)c1 returned TAR Tat displ -0.76 and CDC25B CDK2 inh -1.8.

Reprinted from the part before: 5 entries, then new ones.
Screening COc1ccc(CNc2c(-c3ccc4c(c3)CCCC4)c(=O)c2=O)cc1 returned TAR Tat displ 2.2.
Screening COc1ccc(C(c2sc3nc(C)nn3c2O)N2CCN(C)CC2)cc1 (stereo unspecified) returned CDC25B CDK2 inh -1.3.
`O=C(C1CCN(c2ccc3cc(S(=O)(=O)N4CCCCC4)ccc3n2)CC1)N1CCCC1` gave TAR Tat displ 0.93.
O=C(NCc1cccs1)c1sc(=S)n2c1[nH]c(=O)c1ccccc12 was read as TAR Tat displ -0.89.
Screening Cc1ccnc(Nc2nc(-c3c(C)nc4cc(C)ccn34)cs2)c1 returned TAR Tat displ -0.76 and CDC25B CDK2 inh -1.8.
`CCC1C(=O)C(C)(C)C(=O)OC1c1cccc(Br)c1` (stereo unspecified) gave TAR Tat displ 0.18 and CDC25B CDK2 inh -1.3.
CCn1c(C(=O)N2CCC(C(=O)NCCc3ccc(C)cc3)CC2)cc2sccc21 was read as CDC25B CDK2 inh -0.14.
Cc1[nH]cnc1C(=O)N/N=C/c1ccncc1 was read as CDC25B CDK2 inh -2.3.
For CN(C)c1nc2nonc2nc1N the results were TAR Tat displ 2.3 and CDC25B CDK2 inh -1.9.
For CCCn1c2ccccc2c2cnn(CC(=O)NC3CCCCC3C)c(=O)c21 (stereo unspecified) the results were TAR Tat displ 0.43.
Screening COc1ccc2c(c1)C=CC1(O2)N(C)c2ccccc2C1(C)C (stereo unspecified) returned CDC25B CDK2 inh -0.82.
For O=C(CN1c2ccccc2S(=O)(=O)c2ccccc21)NCCC1=CCCCC1 the results were TAR Tat displ 0.39.
`O=C(c1ccc2c(Cl)c3c(nc2c1)CCC3)N1CCN(C(=O)c2ccco2)CC1` gave TAR Tat displ 0.66 and CDC25B CDK2 inh -0.64.
`O=C(CSc1ccccn1)c1ccc(OCc2ccc(F)cc2)cc1` gave CDC25B CDK2 inh -0.76.
Screening CC(C)Cn1cc(NC(=O)NCCCN2CCCCC2C)c2ccccc2c1=O (stereo unspecified) returned TAR Tat displ -0.26.
`CCCc1nc2ccccc2n1CC(O)COc1ccc(Cl)cc1` (stereo unspecified) gave TAR Tat displ 0.99 and CDC25B CDK2 inh -1.5.
`Cc1c(C)[n+](=O)c2cc(Cl)c(Cl)cc2n1[O-]` gave CDC25B CDK2 inh -4.2.
`CC1Cc2ccccc2N1C(=O)CSc1nc(-c2ccco2)cc(C(F)(F)F)n1` (stereo unspecified) gave TAR Tat displ 1.1 and CDC25B CDK2 inh -3.3.
O=C(Nc1ccc(F)cc1)C(=O)c1c[nH]c2ccccc12 was read as TAR Tat displ -0.71 and CDC25B CDK2 inh -2.5.
For COC(=O)c1oc2ccccc2c1N the results were TAR Tat displ 1 and CDC25B CDK2 inh -1.2.
`CCOC(=O)CSc1nnc(-c2c[nH]c3ccccc23)n1-c1ccc(F)cc1` gave CDC25B CDK2 inh 0.11.
For Cc1ccnc2c1ccc1ccccc12 the results were CDC25B CDK2 inh -2.1.
Screening Cc1ccc(C(=O)O)cc1N1C(=O)CCC1=O returned TAR Tat displ 1.8 and CDC25B CDK2 inh 0.93.
For CN1CCN(C(c2ccccc2)c2oc3ccccc3c2NC(=O)c2ccco2)CC1 (stereo unspecified) the results were TAR Tat displ 0.27 and CDC25B CDK2 inh -1.5.
Screening COc1ccccc1CN=C1NS(=O)(=O)C(c2ccc(C)c(C)c2)=C1C returned TAR Tat displ -1.2 and CDC25B CDK2 inh -7.5.

The closing 3 compounds of the part above open the next one:
Screening Cc1ccc(C(=O)O)cc1N1C(=O)CCC1=O returned TAR Tat displ 1.8 and CDC25B CDK2 inh 0.93.
For CN1CCN(C(c2ccccc2)c2oc3ccccc3c2NC(=O)c2ccco2)CC1 (stereo unspecified) the results were TAR Tat displ 0.27 and CDC25B CDK2 inh -1.5.
Screening COc1ccccc1CN=C1NS(=O)(=O)C(c2ccc(C)c(C)c2)=C1C returned TAR Tat displ -1.2 and CDC25B CDK2 inh -7.5.
For CCOC(=O)c1sc2nc(N3CCOCC3)c3c(c2c1N)CCCC3 the results were TAR Tat displ 2.7 and CDC25B CDK2 inh -1.3.
Screening O=C(CC1Sc2ccc(C(F)(F)F)cc2NC1=O)Nc1ccccc1 (stereo unspecified) returned CDC25B CDK2 inh -2.9.
O=C(O)c1cccc2c1NC(c1cccc(C(F)(F)F)c1)C1C3CCC(C3)C21 (stereo unspecified) was read as CDC25B CDK2 inh -2.3.
`COc1ccc(OC)c(NC(=O)c2cc3ccc4cccnc4c3[nH]2)c1` gave TAR Tat displ 0.18.
O=C1CCC(=O)N1c1ccc(Cl)cc1 was read as TAR Tat displ -0.76 and CDC25B CDK2 inh -1.6.
For O=S(=O)(c1ccc2c(c1)CCCC2)N1CCC(c2ccncc2)CC1 the results were TAR Tat displ 1.3.
`COc1ccc(-c2nnc(SCCOc3ccc(Cl)cc3)o2)cc1OC` gave TAR Tat displ 1 and CDC25B CDK2 inh -3.6.
`CCOC(=O)c1c(NC(=O)N2CCSc3ccccc32)sc2c1CCCC2` gave TAR Tat displ 0.44.
`O=S(=O)(N/N=C/c1cccc2ccccc12)c1ccc(Cl)cc1` gave CDC25B CDK2 inh -4.4.
`O=C(Nc1cccc(F)c1)N1CCCC1c1ccco1` (stereo unspecified) gave TAR Tat displ 1.6 and CDC25B CDK2 inh -0.83.
For OCc1cnc(SCc2ccccc2Cl)n1Cc1ccc(F)cc1 the results were TAR Tat displ -1.
`CC1(C)CC(=O)C2=C(C1)Nc1[nH]c(=O)[nH]c(=O)c1C2c1ccccc1` (stereo unspecified) gave CDC25B CDK2 inh -1.
For c1ccc(-c2nc3c4ccccc4nc(NCCCN4CCCCCC4)n3n2)cc1 the results were CDC25B CDK2 inh 1.5.
For CCN(CC)CCCNC(=O)NC1COc2ccc(OC)cc2C1 (stereo unspecified) the results were TAR Tat displ 0.91.
Screening O=C(CCCc1nc(-c2ccccn2)no1)Nc1ccccc1 returned TAR Tat displ 0.68 and CDC25B CDK2 inh -0.74.
For C#CCSc1nc2c(c(=O)[nH]1)C(c1ccc(C)cc1C)CC(=O)N2 (stereo unspecified) the results were TAR Tat displ 1.2 and CDC25B CDK2 inh -1.8.
`CCN(CC)C(=O)Cn1ncc2c1-c1ccccc1OC2` gave CDC25B CDK2 inh -1.2.
`Cn1c(=O)c(=O)n(C)c2cc(S(=O)(=O)NCc3cccs3)ccc21` gave TAR Tat displ 0.3 and CDC25B CDK2 inh -0.76.
Screening CC1=CC(C)(C)NC(=S)N1c1ccccc1Br returned CDC25B CDK2 inh -0.51.
O=C(Oc1ccccc1Br)c1cc(-c2ccc3c(c2)OCCO3)on1 was read as TAR Tat displ 1.2 and CDC25B CDK2 inh -1.
For CCNc1nc(N2CCCC2)nc2c1cnn2C the results were TAR Tat displ 1.4.
For CCCCc1nc(SCC(=O)Nc2ccc3c(c2)OCCO3)c2c(=O)n(C)c(=O)n(C)c2n1 the results were TAR Tat displ 0.72.
For O=C(c1ccco1)N1CCN(C(=O)c2cc3c(=O)oc4ccccc4c3s2)CC1 the results were CDC25B CDK2 inh -0.45.
`Cc1cc(C)c2oc(-c3ccc(C)c(N)c3)nc2c1` gave TAR Tat displ 0.29 and CDC25B CDK2 inh -2.4.
For Cc1cc(C)nc(-n2c(Nc3ccccc3)cc(=O)c3c(C)n(-c4ccccc4)c(=O)nc32)n1 the results were TAR Tat displ 1.4 and CDC25B CDK2 inh -0.13.
Screening CC1CC(=O)Nc2cc(S(=O)(=O)N3CCCC3)ccc2S1 (stereo unspecified) returned TAR Tat displ 0.89.
`CC(C)(C)C(=O)NCC(c1ccco1)S(=O)(=O)c1ccc(Cl)cc1` (stereo unspecified) gave TAR Tat displ 0.57.
Screening Cc1ccc(S(=O)(=O)[C@H]2CS(=O)(=O)C[C@@H]2NC2CC2)cc1 returned TAR Tat displ 1.2 and CDC25B CDK2 inh -0.21.
CC12CN3CC(C)(CN(C1)C3c1ccccc1F)C2=O (stereo unspecified) was read as TAR Tat displ -0.02 and CDC25B CDK2 inh -2.1.
For O=C(CSc1ccc2nnc(-c3ccc(F)cc3)n2n1)Nc1ccc2c(c1)OCCO2 the results were CDC25B CDK2 inh -15.
Screening O=S(=O)(c1ccc(F)cc1F)N(Cc1cc(CN2CCOCC2)cs1)c1ccc(F)cc1 returned TAR Tat displ -1.4.
O=C(Nc1sc2c(c1C(=O)NCC1CCCO1)CCC2)c1csnn1 (stereo unspecified) was read as TAR Tat displ 1.3 and CDC25B CDK2 inh -1.4.
Screening CC(=O)NC1=NN(C(C)=O)C(c2ccc(OC(=O)c3ccccc3)c(Br)c2)S1 (stereo unspecified) returned TAR Tat displ 0.39 and CDC25B CDK2 inh -1.8.
For C=C(C)Cn1c(C2CC(=O)N(c3ccccc3OCC)C2)nc2ccccc21 (stereo unspecified) the results were TAR Tat displ 2.2 and CDC25B CDK2 inh -0.87.
CCOC(=O)c1c(-c2ccccc2)c2oc3ccc(Cl)cc3c2[nH]c1=O was read as TAR Tat displ 0.89 and CDC25B CDK2 inh 0.1.
Screening Cc1ccc(CO)cc1Nc1ncnc2onc(C)c12 returned TAR Tat displ 0.56.
O=C(C1CCCN(c2nnc(N3CCCC3=O)s2)C1)N1CCN(c2ccccc2F)CC1 (stereo unspecified) was read as TAR Tat displ 0.93 and CDC25B CDK2 inh -1.5.
Screening Nc1ccn(C2O[C@H](CO)[C@@H](O)[C@H]2O)c(=O)n1 (stereo partly specified) returned TAR Tat displ 0.42.
Screening COc1ccccc1OCC(=O)Nc1onc2c1CCCC2 returned TAR Tat displ -0.5 and CDC25B CDK2 inh -2.5.
COCc1cc(C)nc2sc(C(=O)N3CCCC3)c(N)c12 was read as TAR Tat displ -0.67 and CDC25B CDK2 inh -0.09.
Cc1ccc(C)c(CN2C(=O)N(c3cc(C)ccc3C)C3CS(=O)(=O)CC32)c1 (stereo unspecified) was read as TAR Tat displ 0.37.
For C=C(C)Cn1c(COc2ccc(Cl)cc2)nnc1SCC(=O)O the results were TAR Tat displ 2.1 and CDC25B CDK2 inh -1.4.
For CSc1nc(N2CCCCC2)c2c(c1C#N)CCCC2 the results were CDC25B CDK2 inh -1.6.
`O=C(O)C1Cc2c([nH]c3ccccc23)C(c2ccc(O)c(O)c2)N1` (stereo unspecified) gave CDC25B CDK2 inh 2.8.
CCSc1nsc(NC(=O)Nc2ccc(Cl)cc2)n1 was read as TAR Tat displ 1.4 and CDC25B CDK2 inh -1.4.
Cc1ccnc(SCC(=O)N2CCc3ccccc3C2)n1 was read as CDC25B CDK2 inh -0.92.

Screens deposited in PubChem BioAssay by Center for Chemical Genomics, University of Michigan.
